UUG fidelity – yeast start codon fidelity modulation; hit rate 0.13% among 350,000; AID 602363; S. cerevisiae UUG-firefly luciferase reporter, luminescence/redox ratio; activity score, % at 18.7 µM;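 active = replicate mean at a twofold rise or more, about +100% in these data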;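 note: firefly luciferase made from a UUG start codon reports start codon fidelity; reporter light over untreated wells divided by growth signal over untreated wells; some hits fall short of that in this replicate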
Numbers without * were called inactive. The list is partial; count on the stated rates, not on these rows.

entry	molecule	UUG fidelity
1	CCCN(C)C[C@@H]1OCc2cnnn2CCCC(=O)N([C@@H](C)CO)C[C@H]1C	-12.0
2	COc1cccc(S(=O)(=O)N2CC[C@H]3[C@H](CO)Nc4ccc(Br)cc4[C@H]32)c1	-12.1
3	Cc1ccc(-c2ccc([C@H]3[C@@H](CO)N4CCCCN(C(=O)c5ccncc5)C[C@@H]34)cc2)cc1	-9.0
4	O=C(c1cccc(F)c1)N1C[C@H]2[C@@H](c3ccccc31)[C@@H](CO)N2Cc1cocn1	21.7
5	CCCNC(=O)N1[C@H](CO)[C@H](c2ccccc2)[C@@H]1CNC(=O)c1ccc(F)cc1	3.5
6	CC(C)NC(=O)N1CC[C@H]2[C@@H]1c1cc(C#Cc3cccnc3)ccc1N(C)[C@H]2CO	-12.1
7	O=C(C[C@H]1CC[C@H]2[C@@H](COC[C@H](O)CN2S(=O)(=O)c2ccc(F)cc2)O1)NCc1ccc(Cl)c(Cl)c1	10.2
8	COc1ccccc1S(=O)(=O)N1CC[C@@H]2[C@H]1c1cc(-c3cccc(C#N)c3)ccc1N(C)[C@H]2CO	-11.9
9	CCC(=O)N1CC[C@@H]2[C@H]1c1cc(-c3ccccc3F)ccc1N(C)[C@H]2CO	-5.7
10	COCC#Cc1ccc([C@H]2[C@H](CO)N3CCCCN(Cc4cccnc4)C[C@@H]23)cc1	-2.9

entry	molecule	UUG fidelity
11	C[C@H]1CN([C@@H](C)CO)C(=O)c2cc(NS(C)(=O)=O)ccc2O[C@@H]1CN(C)Cc1ccc(C(=O)O)cc1	0.5
12	COCC(=O)N1CCCCN2[C@@H](CO)[C@H](c3ccc(-c4cccc(C)c4)cc3)[C@@H]2C1	-3.4
13	C[C@H](CO)N1C[C@H](C)[C@H](CN(C)S(=O)(=O)c2ccc(Cl)cc2)Oc2ccc(NC(=O)CCCN(C)C)cc2CC1=O	3.6
14	C[C@H]1CN([C@@H](C)CO)C(=O)Cc2cc(NS(=O)(=O)c3ccc(F)cc3)ccc2O[C@H]1CN(C)CC1CC1	-7.9
15	CCC(=O)N1[C@H](CN(C)C(C)=O)[C@@H](c2ccc(-c3cccnc3)cc2)[C@@H]1CO	12.7
16	COc1ccc(NC(=O)N(C)C[C@H]2OCc3ccccc3-c3ccccc3C(=O)N([C@H](C)CO)C[C@@H]2C)cc1	-2.0
17	O=C(C1CCOCC1)N1C[C@H]2[C@@H](c3ccccc31)[C@H](CO)N2Cc1ccccc1Cl	24.4
18	C[C@@H]1CN([C@H](C)CO)C(=O)c2cc(NC(=O)Nc3ccc(F)cc3)ccc2O[C@H]1CN(C)S(=O)(=O)c1ccccc1	-6.8
19	CO[C@@H]1CN(C)C(=O)c2cc(NS(=O)(=O)CC(F)(F)F)ccc2OC[C@H](C)N(C(=O)c2ccc3c(c2)OCO3)C[C@H]1C	3.2
20	CN1c2ccc(C#Cc3cccc(F)c3)cc2[C@H]2[C@H](CCN2S(=O)(=O)c2ccccc2F)[C@@H]1CO	9.6

Part of the list above in another layout.
(2) COc1cccc(S(=O)(=O)N2CC[C@H]3[C@H](CO)Nc4ccc(Br)cc4[C@H]32)c1
  UUG fidelity: -12.1
(3) Cc1ccc(-c2ccc([C@H]3[C@@H](CO)N4CCCCN(C(=O)c5ccncc5)C[C@@H]34)cc2)cc1
  UUG fidelity: -9.0
(4) O=C(c1cccc(F)c1)N1C[C@H]2[C@@H](c3ccccc31)[C@@H](CO)N2Cc1cocn1
  UUG fidelity: 21.7
(5) CCCNC(=O)N1[C@H](CO)[C@H](c2ccccc2)[C@@H]1CNC(=O)c1ccc(F)cc1
  UUG fidelity: 3.5

(listing goes on)
entry	molecule	UUG fidelity
21	CCCC(=O)Nc1ccc2c(c1)C(=O)N(C)C[C@@H](OC)[C@@H](C)CN(C(=O)CN(C)C)[C@@H](C)CO2	-8.0
22	Cc1cccc(-c2ccc([C@H]3[C@H](CO)N4CCCCN(S(=O)(=O)c5ccccc5C)C[C@@H]34)cc2)c1	-2.7
23	O=C(C[C@H]1CC[C@H]2[C@@H](COC[C@H](O)CN2Cc2cc(F)ccc2F)O1)NCc1ccccc1	-12.9
24	N#Cc1ccc(-c2ccc3c(c2)[C@@H]2[C@@H](CCN2C(=O)CN2CCOCC2)[C@H](CO)N3)cc1	18.1
25	COc1ccc(NC(=O)Nc2ccc3c(c2)C(=O)N([C@@H](C)CO)C[C@H](C)[C@@H](CN(C)Cc2ccc(-c4ccccc4)cc2)O3)cc1	-6.0
26	O=C(c1cccnc1)N1C[C@@H]2[C@H](c3ccccc31)[C@@H](CO)N2C(=O)C1CC1	33.4
27	CN1c2ccc(-c3cccc(C#N)c3)cc2[C@H]2[C@H](CCN2S(=O)(=O)c2ccccc2F)[C@@H]1CO	2.3
28	C[C@@H]1CN([C@@H](C)CO)C(=O)c2cc(NC(=O)Cn3cnnn3)ccc2O[C@H]1CN(C)Cc1ccc(Oc2ccccc2)cc1	7.4
29	Cc1ccccc1S(=O)(=O)N1CC[C@@H]2[C@H](CO)N(C)c3ccc(C#Cc4ccc(F)cc4)cc3[C@@H]21	-10.2
30	O=C(C1CCCCC1)N1C[C@@H]2[C@H](c3ccccc31)[C@@H](CO)N2C(=O)Cc1ccccn1	-8.9

entry	molecule	UUG fidelity
31	COCC#Cc1ccc([C@H]2[C@@H](CO)N3CCCCN(S(=O)(=O)c4ccc(OC)cc4)C[C@H]23)cc1	-4.9
32	O=C(C[C@@H]1CC[C@H]2[C@@H](COC[C@H](O)CN2Cc2ccc(F)cc2)O1)NCc1ccccc1Cl	-5.6
33	C[C@@H]1CN([C@@H](C)CO)C(=O)Cc2cc(NC(=O)Nc3cccc4ccccc34)ccc2O[C@@H]1CN(C)Cc1ccc(C(=O)O)cc1	11.6
34	CC(=O)N1CCCCN2[C@H](C1)[C@@H](c1ccc(-c3ccc(F)cc3)cc1)[C@@H]2CO	3.5
35	CN(C)C(=O)c1cccc(-c2ccc3c(c2)[C@H]2[C@H](CCN2C(=O)C2CCOCC2)[C@@H](CO)N3)c1	0.4
36	Cc1noc(C)c1S(=O)(=O)Nc1ccc2c(c1)C(=O)N([C@H](C)CO)C[C@@H](C)[C@@H](CN(C)Cc1ccc(Oc3ccccc3)cc1)O2	13.3
37	C[C@@H]1CN([C@@H](C)CO)C(=O)c2cc(NS(=O)(=O)c3cccs3)ccc2O[C@H]1CN(C)C(=O)Nc1ccc(C(F)(F)F)cc1	4.3
38	O=C(C1CCCCC1)N1C[C@@H]2[C@H](c3ccccc31)[C@H](CO)N2C(=O)c1ccccc1	-7.7
39	O=C(c1ccccc1)N1C[C@@H]2[C@H](c3ccccc31)[C@H](CO)N2Cc1cc(F)ccc1F	-6.0
40	C[C@H](CO)N1C[C@H](C)[C@@H](CN(C)Cc2ccc(Oc3ccccc3)cc2)Oc2c(NC(=O)C3CCCCC3)cccc2C1=O	-0.4

entry	molecule	UUG fidelity
41	C[C@H](CO)N1C[C@H](C)[C@H](CN(C)S(=O)(=O)c2cn(C)cn2)Oc2ccc(NC(=O)CCN3CCOCC3)cc2C1=O	2.1
42	CO[C@@H]1CN(C)C(=O)c2cc(NC(=O)C3CC3)ccc2OC[C@@H](C)N(C(=O)c2ccccc2)C[C@H]1C	4.3
43	CO[C@H]1CN(C)C(=O)c2cc(NC(C)=O)ccc2OC[C@H](C)N(C(=O)C2CCC2)C[C@@H]1C	-10.1
44	C[C@@H]1CN([C@@H](C)CO)C(=O)c2cc(NC(=O)CCN3CCOCC3)ccc2O[C@H]1CN(C)Cc1ccc(C(=O)O)cc1	-2.6
45	COc1ccccc1NC(=O)N1C[C@H]2[C@@H](c3ccccc31)[C@@H](CO)N2C(C)=O	13.4
46	C[C@@H]1CN([C@H](C)CO)C(=O)c2cc(NC(=O)C3CC3)ccc2O[C@@H]1CN(C)Cc1ccccc1	-11.7
47	COc1ccccc1C(=O)N1C[C@@H]2[C@H](c3ccccc31)[C@H](CO)N2C(=O)Cc1ccccc1	-7.6
48	O=C(NC[C@@H]1[C@@H](c2ccccc2)[C@@H](CO)N1Cc1ccccn1)C1CC1	-17.2
49	C[C@H](CO)N1C[C@H](C)[C@H](CN(C)Cc2ccc3c(c2)OCO3)Oc2ccc(NS(=O)(=O)c3cn(C)cn3)cc2C1=O	-13.8
50	Cc1ccc(S(=O)(=O)Nc2ccc3c(c2)C(=O)N([C@@H](C)CO)C[C@@H](C)[C@@H](CN(C)S(=O)(=O)c2cccs2)O3)cc1	4.9

entry	molecule	UUG fidelity
51	C[C@H]1CN([C@@H](C)CO)C(=O)c2cc(NC(=O)Cn3cnnn3)ccc2O[C@@H]1CN(C)Cc1ccc(Oc2ccccc2)cc1	9.4
52	Cn1cnc(S(=O)(=O)N2CCCCN3[C@H](C2)[C@@H](c2ccc(-c4ccccc4)cc2)[C@@H]3CO)c1	15.8
53	O=C(c1ccccc1)N1CC[C@@H]2[C@H](CO)Nc3ccc(-c4ccccc4F)cc3[C@@H]21	-1.9
54	Cc1ccc(S(=O)(=O)N(C)C[C@@H]2Oc3ccc(NC(=O)CCN4CCOCC4)cc3C(=O)N([C@@H](C)CO)C[C@@H]2C)cc1	-10.2
55	CO[C@H]1CN(C)C(=O)c2ccc(NC(=O)c3cnccn3)cc2OC[C@@H](C)N(C(C)=O)C[C@H]1C	-0.8
56	CCN(C[C@@H]1N[C@@H](CO)[C@H]1c1ccc(-c2ccccc2)cc1)C(=O)COC	-0.1
57	C[C@@H]1CN([C@@H](C)CO)C(=O)c2cc(NC(=O)NC3CCCCC3)ccc2O[C@H]1CN(C)Cc1ccc(Oc2ccccc2)cc1	56.6
58	C[C@H]1CN([C@@H](C)CO)C(=O)Cc2cc(NC(=O)C3CC3)ccc2O[C@@H]1CN(C)C(=O)Nc1ccc(F)cc1	-5.5
59	CCCNC(=O)N1C[C@@H](C)[C@@H](OC)CN(C)C(=O)c2cc(NS(=O)(=O)CC(F)(F)F)ccc2OC[C@@H]1C	-1.6
60	O=C(C[C@H]1CC[C@@H]2[C@H](COC[C@@H](O)CN2S(=O)(=O)c2cccc(F)c2)O1)NCCCN1CCOCC1	-14.5

entry	molecule	UUG fidelity
61	O=C(C1CC1)N1C[C@H]2[C@@H](c3ccccc31)[C@H](CO)N2C(=O)c1ccccc1F	-11.9
62	O=C(CC1CC1)N1[C@H](CO)[C@@H]2c3ccccc3N(S(=O)(=O)c3ccc(F)cc3)C[C@@H]21	6.1
63	O=S(=O)(c1ccccc1)N1CCCCN2[C@H](CO)[C@H](c3ccc(-c4ccccc4F)cc3)[C@@H]2C1	4.5
64	O=C(C[C@H]1CC[C@H]2[C@@H](COC[C@H](O)CN2C(=O)Nc2ccc(Cl)c(Cl)c2)O1)NCc1ccc(Cl)c(Cl)c1	-20.9
65	O=C(C[C@H]1CC[C@H]2[C@@H](COC[C@@H](O)CN2S(=O)(=O)c2ccc(Oc3ccccc3)cc2)O1)NCCN1CCCCC1	-7.0
66	CN1c2ccc(C3=CCCCC3)cc2[C@@H]2[C@@H](CCN2S(=O)(=O)c2ccc(F)cc2)[C@H]1CO	-8.6
67	COc1ccc(C#Cc2ccc3c(c2)[C@@H]2[C@@H](CCN2C(=O)c2cccc(F)c2)[C@@H](CO)N3)cc1	-12.1
68	OC[C@H]1[C@H](c2ccc(-c3cccc(F)c3)cc2)[C@H]2CN(CCC(F)(F)F)CCCCN21	-9.6
69	COc1cccc(C(=O)N2C[C@H]3[C@@H](c4ccccc42)[C@H](CO)N3C(=O)c2cccc(F)c2)c1	3.0
70	C[C@@H]1CN([C@@H](C)CO)C(=O)c2cc(NC(=O)CCC(F)(F)F)ccc2O[C@H]1CN(C)C(=O)Nc1ccc(C(F)(F)F)cc1	11.3

entry	molecule	UUG fidelity
71	CN1CCN(C(=O)C[C@H]2CC[C@@H]3[C@H](COC[C@@H](O)CN3CC3CCCCC3)O2)CC1	-3.9
72	CCC(=O)Nc1ccc2c(c1)OC[C@@H](C)N(Cc1cccnc1)C[C@@H](C)[C@@H](OC)CN(C)C2=O	-9.9
73	O=C(CC(F)(F)F)N1C[C@H]2[C@@H](c3ccccc31)[C@H](CO)N2CC1CCCCC1	85.0
74	C[C@H](CO)N1C[C@H](C)[C@H](CN(C)S(C)(=O)=O)Oc2ccc(NC(=O)Nc3ccccc3)cc2CC1=O	-7.6
75	OC[C@H]1[C@@H](c2ccc(/C=C/c3ccccc3)cc2)[C@H]2CN(Cc3cccnc3)CCCCN21	-17.2
76	COc1ccc(NC(=O)Nc2ccc3c(c2)CC(=O)N([C@@H](C)CO)C[C@@H](C)[C@H](CN(C)C)O3)cc1	17.9
77	Cc1noc(C)c1NC(=O)N(C)C[C@H]1Oc2c(NC(=O)Nc3cccc4ccccc34)cccc2C(=O)N([C@@H](C)CO)C[C@@H]1C	-0.8
78	Cc1cc(C(=O)Nc2cccc3c2O[C@@H](CN(C)C(=O)NC(C)C)[C@@H](C)CN([C@H](C)CO)C3=O)n(C)n1	21.4
79	CN1C[C@H]2[C@@H](c3ccccc31)[C@H](CO)N2C(=O)Nc1ccccc1	-6.9
80	COCCNC(=O)C[C@H]1CC[C@H]2[C@@H](COc3ccc(NS(=O)(=O)c4ccc(Cl)cc4)cc3C(=O)N2C)O1	10.5

entry	molecule	UUG fidelity
81	O=C(C[C@H]1CC[C@H]2[C@@H](COC[C@@H](O)CN2C(=O)c2ccccc2F)O1)N1CCCCC1	-1.4
82	CCS(=O)(=O)N1CCCCN2[C@H](CO)[C@H](c3ccc(C#Cc4ccccc4OC)cc3)[C@@H]2C1	11.8
83	CCCNC(=O)N1C[C@@H]2[C@H](c3ccccc31)[C@H](CO)N2C(=O)Nc1ccccc1	1.2
84	CCC(=O)Nc1ccc2c(c1)C(=O)N(C)C[C@@H](OC)[C@H](C)CN(Cc1cccc(F)c1)[C@H](C)CO2	-17.3
85	C[C@H](CO)N1C[C@H](C)[C@H](CN(C)Cc2ccc(-c3ccccc3)cc2)Oc2c(NS(=O)(=O)c3cn(C)cn3)cccc2C1=O	2.3
86	C/C=C/c1ccc([C@@H]2[C@@H](CO)N(C(=O)CC)[C@H]2CNC(=O)C2CC2)cc1	14.5
87	CCC(=O)Nc1ccc2c(c1)OC[C@H](C)N(C(=O)CC1CC1)C[C@@H](C)[C@H](OC)CN(C)C2=O	0.2

Source: PubChem BioAssay
